2A firefly: FMDV 2A StopGo reporter, firefly signal; HEK cells with a luciferase reporter of 2A StopGo recoding; Potency, µM (series often up to 57.5 µM), for inactives: top-dose signal change, negative = less light; AID 1745856; actives 0.23% (n = 120,000); active = well fitted falling curve with a large enough effect; inconclusive = small, poorly fitted or top-dose-only effect; inactive = no such curve, though single readings can be large or run the other way; further: nearly all actives have a fitted effect of over 60% in size; overnight with compound
StopGo RLuc: lowers the Renilla signal of an FMDV 2A StopGo reporter | HEK cells with a luciferase reporter of 2A StopGo recoding | actives 0.32% (n = 120,000) | Potency, µM (highest dose often 57.5 µM), for inactives: at the top dose signal change, negative = less light; active means well fitted falling curve with a large enough effect; inconclusive means small, poorly fitted or top-dose-only effect; inactive means no such curve, though single readings can be large or run the other way; further: nearly all actives have a fitted effect of over 55% in size; overnight with compound
Starred values were filed as active, the others as inactive; ? = inconclusive; & = joins results of further samples; [ ] = another dose, or the depositor's remark. On the % scale 0 is the no-effect control and ±100 the full control effect; potency means the concentration at half of the fitted maximal effect.

Preview (three entries):
SMILES | 2A firefly | StopGo RLuc
CCC(C)Nc1sc(S(=O)(=O)CC)nc1S(=O)(=O)c1ccc(C)cc1 (configuration not stated) | -6.1% | 105.9%[activator]
Fc1ccc(C(Nc2ccccc2Cl)c2nnc(-c3ccccc3Cl)o2)cc1 (configuration not stated) | 11.7% | 40.6%[activator]
COCCn1c(CCC(=O)Nc2cc(C)ccc2F)nc2c1c(=O)[nH]c(=O)n2CC(C)C | 6.2% | 6.7%

The list itself (from the top)
SMILES | 2A firefly | StopGo RLuc
CCC(C)Nc1sc(S(=O)(=O)CC)nc1S(=O)(=O)c1ccc(C)cc1 (configuration not stated) | -6.1% | 105.9%[activator]
Fc1ccc(C(Nc2ccccc2Cl)c2nnc(-c3ccccc3Cl)o2)cc1 (configuration not stated) | 11.7% | 40.6%[activator]
COCCn1c(CCC(=O)Nc2cc(C)ccc2F)nc2c1c(=O)[nH]c(=O)n2CC(C)C | 6.2% | 6.7%
COc1ccc(COCC(O)CNC(=O)CC2CCCCC2)cc1 (configuration not stated) | 9.2% | -5.2%
CCN(CC)CCCNC(=O)c1nn(-c2ccc(C)cc2)c(=O)c2c1c1ccccc1n2C | -15.0% | -18.6%
CCC(C(=O)Nc1ccccc1F)N1C(=O)CN=C(c2ccccc2)c2ccccc21 (configuration not stated) | 20.8% | 44.7%[activator]
Cc1cc(N2CCC(C)CC2)nc2ccc(NC(=O)CCC(=O)N3CCN(c4cccc(C(F)(F)F)c4)CC3)cc12 | -25.6% | ?
COc1ccc(-c2nnc(N3CCCCC3)c3ccccc23)cc1 | 6.4% | -7.5%
CCOC(=O)COc1ccc(F)cc1C(=O)c1ccn2nc(-c3ccc(C)cc3)cc2n1 | -36.4% | -21.3%
CC(C)c1ccc(NC(=S)NCc2ccc(F)cc2)cc1 | 0.0% | 47.7%[activator]
O=C(Nc1cccc(C(F)(F)F)c1)c1cccc(NC(=O)c2cnc3ccccc3n2)c1 | 3.5% | -9.7%
CCOC(=O)c1ccccc1NC(=O)COc1ccccc1-c1nnc(-c2ccccc2)o1 | -13.5% | 38.8%[activator]
CCOc1ccc(CCNC(=O)C(C)n2nc(C)n3c(cc4occc43)c2=O)cc1OCC (configuration not stated) | -14.5% | -9.5%
Cc1ccc(NC(=O)N2CCN(c3nnc(C)c4c(C)n(-c5ccccc5)nc34)CC2)cc1Cl | -12.1% | -8.1%
CCOC(=O)C(=O)NNC(=O)OC | -5.5% | 6.7%
Cc1cc(=O)n(Cc2c(F)cccc2Cl)c2c1c(C)nn2-c1cccc(F)c1 | -10.6% | -10.3%
Cc1cccc(C)c1-n1nnnc1SCC(=O)N(Cc1ccco1)C1=CCCCC1 | -25.4% | 16.7%
COc1ccc(Cl)cc1NC(=O)C1CCN(c2nccnc2Oc2ccccc2C)CC1 | -1.8% | -3.4%
N#Cc1ccc(COC(=O)c2cccc3cccnc23)cc1 | 49.6%[activator] | 28.7%
O=C(OCC(=O)C12CC3CC(CC(C3)C1)C2)c1ccc([N+](=O)[O-])cc1Cl | 13.2% | -23.4%
CC1CCCN(S(=O)(=O)c2ccc3oc(=O)ccc3c2)C1 (configuration not stated) | 5.3% | 11.4%
O=C(Nc1ccc(Oc2ccccc2)cc1)C1CCN(S(=O)(=O)c2ccc(Cl)cc2)CC1 | -19.7% | -11.3%
Cc1cc2c(cc3c(SCc4cccc(Cl)c4)nnc(C)n32)o1 | 35.9%[activator] | 4.1%
CCc1ccc2[nH]cc(S(=O)(=O)c3ccc(C(C)C)cc3)c(=O)c2c1 | -14.1% | 79.9%[activator]
COCCCNCc1c2ccccc2c(Cl)c2ccccc12 | 0.0% | 9.4%
SMILES | 2A firefly | StopGo RLuc
Cc1noc(NC(=O)CSc2nccn2-c2cccc(C)c2C)n1 | -0.4% | -2.4%
CNC(=O)c1ccc2nc(Cc3ccccc3)oc2c1 | 191.9%[activator] | 9.4%
COc1ccccc1C(=O)Nc1ccccc1OCC1CCCO1 (configuration not stated) | -10.4% | 3.6%
CC(=O)c1cn(CC(=O)NC2CCCCCC2)c2ccccc12 | 37.4%[activator] | -12.0%
Cc1ccc(CN2CCSc3ccc(C(=O)Nc4ccc(C)cc4)cc32)cc1 | 95.7%[activator] | -10.4%
COc1ccccc1Oc1coc2cc(OCc3ccc(Cl)cc3)ccc2c1=O | 21.1% | 9.2%
COc1cccc(C(=O)c2cn(CC(=O)NCc3ccccc3Cl)c3nc(C)ccc3c2=O)c1 | -11.0% | 34.5%[activator]
COc1cccc2c(C)nc(Nc3nc(C)c(Cc4ccc(C)cc4)c(=O)[nH]3)nc12 | 10.3% | 2.4%
CS(=O)(=O)N1CCc2cc(C(=O)Nc3ccc(C(F)(F)F)cc3)ccc21 | ? | 31.6µM*
CCn1c(-n2nc(C)cc2C)nc2c1c(=O)n(Cc1ccccc1Cl)c(=O)n2C | 1.1% | -4.7%
CSC(C)C(=O)N(C)Cc1sccc1C (configuration not stated) | 0.0% | 8.7%
CCCN(C(=O)c1cc2c(=O)[nH]c3ccc(C)cc3c2s1)c1ccc(CC)cc1 | -2.9% | -5.4%
O=C(c1ccc2c(c1)N(Cc1cccc(Cl)c1)C(=O)c1ccccc1S2(=O)=O)N1CCCCCC1 | ? | 155.0%[activator]
CCN(CC)c1ccc(-c2nnc(SCCCn3c(=O)c4c(ncn4C)n(C)c3=O)o2)cc1 | 6.4% | -5.7%
CCC(C)(C)NC(=O)/C=C/c1cc(OC)c(OC)c(OC)c1 | 8.9% | 3.1%
CC1CCC(NC(=O)CCCc2ccccc2)CC1 (configuration not stated) | 4.3% | -7.6%
COc1ccc(-c2nnc(SCC(=O)N(C)C3CCCCC3)o2)cc1 | -6.0% | -4.5%
CCCn1c(CSc2nnc(C3CC3)n2C2CC2)nc2cc(S(=O)(=O)N(C)C)ccc21 | -10.1% | 18.2%
CC1CCCCN1CCNC(=O)c1ccc(Cn2c(SCc3ccccc3)nc3cccnc32)cc1 (configuration not stated) | 36.4%[activator] | -9.5%
Cc1csc(CNC(=O)c2cc(C)c(C)s2)n1 | 0.0% | 14.1%
CCCCS(=O)CC(O)CCl (configuration not stated) | 0.0% | 16.1%
O=C(COC(=O)CSc1ccc2ccccc2c1)Nc1ccccc1C(F)(F)F | -11.4% | -7.7%
Cc1cc(C)n(-c2nc3c(c(=O)n(Cc4c(F)cccc4Cl)c(=O)n3C)n2C(C)C)n1 | -10.2% | -6.3%
COc1cc(OC)c(C2C=C(c3ccc(C)cc3)Nc3c(C(=O)Nc4ccccc4)cnn32)cc1OC (configuration not stated) | -12.8% | -16.2%
O=C1CCCc2[nH]c(=O)c(-c3nc(-c4cccc([N+](=O)[O-])c4)cs3)cc21 | -17.3% | -22.4%
SMILES | 2A firefly | StopGo RLuc
Cc1cccc(NC(=O)C2CCN(c3nnc(-n4c(C)ccc4C)s3)CC2)c1C | 0.0% | 5.4%
CC(=O)Nc1ccc(NC(=O)c2ccc3c(c2)NC(=O)c2ccccc2S3)cc1 | 3.7% | -0.3%
CCCOC(=O)c1nc2ccccc2nc1NCc1ccccc1OC | 75.2%[activator] | 3.8%
COc1ccc(NC(=O)c2ccc3c(c2)c(C)c(C)n3Cc2ccc(F)cc2)cc1 | 25.1% | -4.4%
O=C(C1CCCCN1S(=O)(=O)c1ccccc1)N1CCCC1 (configuration not stated) | 1.8% | 1.3%
N#Cc1nc(COc2cccc(Cl)c2)oc1N1CCCCCC1 | 9.7% | 0.7%
COc1ccccc1CNC(=O)CN1C(=O)COc2ccc(S(=O)(=O)N3CCCCC3)cc21 | -15.7% | 33.5%[activator]
CCOC(=O)COc1ccc([N+](=O)[O-])cc1-c1ccnc2cc(-c3ccc(C)cc3)nn12 | -8.1% | -10.0%
CC(C)(C)NC(=S)NN | 45.1%[activator] | ?
CC(c1cccs1)N(C)CC(O)COc1ccc(-c2ccccc2)cc1 (configuration not stated) | 3.9% | -4.7%[1.06 µM]
Cc1ccc(S(=O)(=O)N2CCN(C(C(=O)O)c3c[nH]c4ccccc34)CC2)cc1 (configuration not stated) | -0.3% | -3.4%
Cc1cc(C)c2oc(C(=O)NCCc3ccc(S(N)(=O)=O)cc3)cc(=O)c2c1 | 11.3%&-6.4% | 2.9%&-6.8%
Cc1cc(=O)[nH]c2nnc(SCc3ccccc3F)n12 | 9.2% | 43.7%[activator]
COc1cccc(/C=C/c2nc(C#N)c(NCCN(C)C)o2)c1 | 18.1% | -13.4%
CC(NC(=O)C1CCN(C(=O)c2cccc3ccccc23)CC1)c1ccccc1 (configuration not stated) | 6.8% | 20.4%
COC(=O)c1ccc(C2C(C(C)=O)C(=O)CC(C)(O)C2C(C)=O)cc1 (configuration not stated) | ? | -7.6%
Cc1ccc(NC(=O)Cn2c(=O)n(CCC(C)C)c(=O)c3cccnc32)cc1C | -5.2% | -7.0%
Cc1ccc(NC(=O)C2CCCN(S(=O)(=O)c3cccc4nsnc34)C2)cc1C (configuration not stated) | -21.3% | -11.0%
CSc1ccc(CCNC(=O)C(C)n2nc(C)c3c(C)n(-c4ccccc4)nc3c2=O)cc1 (configuration not stated) | -17.5% | 0.0%
COc1ccccc1C(NC(=O)c1cc(C(C)=O)c[nH]1)c1nccn1C (configuration not stated) | 15.2% | 5.6%
COc1ccc(C(=O)Nc2ccc3oc(-c4ccccc4C)cc(=O)c3c2)cc1 | 0.0% | 4.3%
COc1ccccc1NC(=O)CCNS(=O)(=O)c1ccc2c(c1)CCCC(=O)N2 | -1.8% | -2.9%
FC(F)(F)c1cnc(SCc2csc(-c3ccccc3)n2)c(Cl)c1 | 4.8% | 6.5%
Cc1ccc2nc(-c3ccccc3)cc(C(=O)NCC3CCCO3)c2c1 (configuration not stated) | 95.6%[activator] | 27.0%
Cc1cc2oc(=O)cc(CN(C)Cc3cccs3)c2cc1C | 114.0%[activator] | 0.0%

Of the compounds above, 6 contain two or more sulfur atoms:
SMILES | 2A firefly | StopGo RLuc
CCC(C)Nc1sc(S(=O)(=O)CC)nc1S(=O)(=O)c1ccc(C)cc1 (configuration not stated) | -6.1% | 105.9%[activator]
CSC(C)C(=O)N(C)Cc1sccc1C (configuration not stated) | 0.0% | 8.7%
CCCn1c(CSc2nnc(C3CC3)n2C2CC2)nc2cc(S(=O)(=O)N(C)C)ccc21 | -10.1% | 18.2%
Cc1csc(CNC(=O)c2cc(C)c(C)s2)n1 | 0.0% | 14.1%
Cc1ccc(NC(=O)C2CCCN(S(=O)(=O)c3cccc4nsnc34)C2)cc1C (configuration not stated) | -21.3% | -11.0%
FC(F)(F)c1cnc(SCc2csc(-c3ccccc3)n2)c(Cl)c1 | 4.8% | 6.5%

New compounds follow:
SMILES | 2A firefly | StopGo RLuc
CCc1ccc(CN(C(=O)c2nc(SC)ncc2Cl)C2CCS(=O)(=O)C2)cc1 (configuration not stated) | 1.5% | 10.2%
O=C(NCc1cccc(Br)c1)c1ccc(-n2cnc3cccnc32)cc1 | 7.0% | 22.0%
CCOc1ccc(-c2cn3c(n2)sc2cc(C(=O)NCCC4=CCCCC4)ccc23)cc1 | 28.5% | -13.1%
Cc1ccc2c(c1)N(C(=O)Nc1ccc(Br)cc1F)CC(C)O2 (configuration not stated) | 1.7% | -8.9%
O=C(CCNS(=O)(=O)c1ccc2c(c1)CCN2C(=O)C1CC1)Nc1ccc(Cl)cc1 | -11.2% | 25.0%
COc1ccc(-c2cnc(NC(=O)NCc3ccccc3)n2C)cc1 | 63.9%[activator] | 0.0%
Cc1c(-c2ccccc2)oc2c(C(=O)OCC(=O)Nc3ccc(F)cc3F)cccc2c1=O | 0.8% | 7.7%
COCCn1c(=O)c2c(nc(-n3nc(C)cc3C)n2CCCc2ccccc2)n(C)c1=O | 4.2% | -1.7%
O=C(c1ccc2c(c1)N(Cc1ccccc1F)C(=O)c1ccccc1S2=O)N1CCN(c2ccccc2)CC1 (configuration not stated) | 8.2% | 10.0%
COc1cc2ccccc2cc1C(=O)Nc1cccc2ncccc12 | 0.0% | 23.8%
COc1cccc(C2C(C(N)=O)=C(C)Nc3ncnn32)c1 (configuration not stated) | -19.6% | -3.0%
COCCNC(=O)c1cc(-c2cccc(Cl)c2)on1 | 123.3%[activator] | 12.1%
COCC(=O)N1CCC2(CC1)OCCN2S(=O)(=O)c1c(C)cc(C)cc1C | 8.0% | -4.5%
O=C(COC(=O)c1ccccc1Sc1ccc(C(F)(F)F)cc1[N+](=O)[O-])NC12CC3CC(CC(C3)C1)C2 | ? | -12.9%[1.06 µM]
CCCN(Cc1ccccc1)C(=O)NCCC(=O)OCC | 3.5% | 1.1%
Cc1ccc(S(=O)(=O)N2CCN(Cc3nc4ccc(C)cc4o3)CC2)c(C)c1 | -26.6% | -12.2%
Fc1cc(F)cc(-c2noc3ncnc(Nc4ccc(-c5ccno5)cc4)c23)c1 | ? | ?
O=C(Nc1ccccc1)c1ccc(Br)c(S(=O)(=O)N2CCCCC2)c1 | -34.8% | ?
Oc1ccc(Cl)cc1C=NCc1ccccc1Cl | 4.8% | 0.7%
CC(=O)c1ccc(NC(=O)C2(c3ccccc3)CCCC2)cc1 | 3.6% | 11.2%
CCCCNC(=O)CCCn1c(=O)c2ccccc2n(Cc2ccccc2C)c1=O | -1.3% | 7.2%
O=C(NCC1CCN(C2CCCC2)C1)Nc1ccccc1 (configuration not stated) | 12.5% | -9.6%
COc1ccc(OC)c(NC(=O)C2CCCN(S(=O)(=O)c3c(C)nn(C)c3C)C2)c1 (configuration not stated) | -24.7% | -7.6%
CC(CNC(=O)C1CCCC1)NC(=O)C1CCCC1 (configuration not stated) | -0.6% | -8.0%
O=C(N/N=C/c1cccc(I)c1)c1cccs1 | 129.6%[activator] | 0.0%
COC(=O)c1cccnc1-n1c(=O)c2cccnc2n(CC(=O)Nc2cccc(C(F)(F)F)c2)c1=O | -6.1% | -9.7%
Cc1cccc(N2CCn3c2nc2c3c(=O)n(CCc3ccccc3)c(=O)n2C)c1 | 1.3% | -4.6%
Fc1ccc(N/N=C/c2c(F)cccc2F)c(F)c1 | 147.4%[activator] | 5.5%

An excerpt. The share of hits here may be higher or lower than overall.
